T cruzi inh = blocks replication of Trypanosoma cruzi. T. cruzi beta-gal in NIH3T3, luminescence, 90 h. inhibition, % (no concentration beside the values). 300,000 tested, 1.4% active. AID 1885;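 active means mean inhibition across valid replicates above about 55%, limit read from the data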;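 further: signal also drops with host cell toxicity which is not excluded here; 0% = plate median of DMSO wells and 100% = zero luminescence signal; higher percent means less beta-gal luminescence so fewer parasites; stock transfer was 50 nL into about 50 µL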
A1 inh = inhibitors of the anti-apoptotic protein A1, read as caspase activation. MEF A1-2A-BIM cells, Caspase-Glo 3/7 luminescence, 3 h; percent of clofoctol response, vehicle zero. caspase activation, % (concentration not given with the values). 330,000 tested, 0.066% active;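 active means over half of replicate activation scores above 10%, or exactly half above 10 with the replicate mean above 10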;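 further: wells of about 30 µL received 50 nL stock; many hits fall short of the cut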
Ecoli rRNA inh = inhibitors of bacterial rRNA selective over humanized ribosomes. E. coli WT GFP vs humanized-ribosome RFP mutants, fluorescence, 24 h; active compounds read low; DMSO median 0, no signal -100. GFP signal change (wild-type ribosome), % (no concentration beside the values). 350,000 tested, 1.6% active. AID 720706;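 active means significant combined selectivity score with lowered wild-type GFP, culture density cut under 30%, mutant RFP and density less affected; inactive means any of these conditions unmet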; further: one replicate is shown; some compounds called inactive have numbers as strong as hits
E coli growth = blocks Escherichia coli growth; 330,000 tested, 0.21% active; OD600 absorbance (no concentration beside the values); OD600, 23 h; active compounds read low;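 active means OD600 absorbance below the run mean of sample wells minus 3.6 SD, in any replicate, cut at about 0.56 in these data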;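 further: stock transfer was 300 nL into about 60 µL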
FGF22 binding = shifts melting point of recombinant human FGF22. calls only at 9.99 µM. 340,000 tested, 1.5% active. AID 651658. Q9HCT0. recombinant FGF22 thermal shift, SYPRO orange fluorescence; percent of sucrose octasulfate shift, DMSO zero;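 active means melting point raised past a set limit in the mean and every replicate; three in four hits are not shown here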
Target sequence (Q9HCT0 whole entry, looked up): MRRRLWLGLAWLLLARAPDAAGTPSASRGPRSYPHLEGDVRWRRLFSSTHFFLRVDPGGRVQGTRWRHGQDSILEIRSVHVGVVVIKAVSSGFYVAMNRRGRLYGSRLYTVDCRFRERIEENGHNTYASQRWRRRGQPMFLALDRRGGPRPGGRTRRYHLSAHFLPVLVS
MLL AF4-AF9 inh = blocks AF4 peptide binding to human AF9; 350,000 tested, 0.47% active; inhibition, % at 10 µM; AlphaScreen, biotin-AF4 peptide binding to FLAG-AF9;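 active means every replicate reaching a set inhibition limit, whatever the replicate mean, cut at about 25% in these data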;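 further: 0% = plate neutral control median and 100% = total signal loss; the record names both 10 and 1 µM as test concentration; the first replicate is given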
Target sequence (P42568 whole entry, looked up): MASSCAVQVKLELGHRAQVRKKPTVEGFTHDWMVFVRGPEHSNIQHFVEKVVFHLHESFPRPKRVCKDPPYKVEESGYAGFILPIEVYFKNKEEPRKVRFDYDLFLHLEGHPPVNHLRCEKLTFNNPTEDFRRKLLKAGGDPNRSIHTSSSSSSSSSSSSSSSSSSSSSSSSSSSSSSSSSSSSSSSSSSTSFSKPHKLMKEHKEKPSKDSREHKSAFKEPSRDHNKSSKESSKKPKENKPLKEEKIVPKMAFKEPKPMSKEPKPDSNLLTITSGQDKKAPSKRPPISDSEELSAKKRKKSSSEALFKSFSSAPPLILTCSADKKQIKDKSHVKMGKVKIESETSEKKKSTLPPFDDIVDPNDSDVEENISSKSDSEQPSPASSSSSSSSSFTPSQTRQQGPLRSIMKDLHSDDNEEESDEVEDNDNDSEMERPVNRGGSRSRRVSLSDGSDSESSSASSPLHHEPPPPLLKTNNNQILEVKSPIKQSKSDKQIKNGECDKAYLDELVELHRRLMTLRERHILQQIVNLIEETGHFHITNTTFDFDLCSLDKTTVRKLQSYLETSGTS
Beta cell apopt = blocks beta cell apoptosis; protection from apoptosis, % (test concentration not listed); INS-1E cytokine-induced death, ATP luminescence, 48 h; percent of positive-control rescue, neutral wells zero; AID 435005; 300,000 tested, 0.8% active;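 active means all replicates at 75% or more, or half of them and the mean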;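 further: 0% = cytokine-treated negative control wells and 100% = positive control rescue; higher means more ATP so stronger rescue from cytokine killing; wells of about 40 µL received 100 nL stock; the first replicate is given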
UCH37 inh = human UCH37 deubiquitinating enzyme inhibition | Q9Y5K5 | purified proteasome/UCH37, Ub-AMC cleavage fluorescence | inhibition, % (concentration not given with the values) | 330,000 tested, 0.33% active | AID 588478;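 active means mean of two replicates above 20%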;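 further: 0% = compound-free wells with enzyme and 100% = wells lacking proteasome; stock transfer was 100 nL into about 20 µL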
Target sequence (Q9Y5K5 whole entry, looked up): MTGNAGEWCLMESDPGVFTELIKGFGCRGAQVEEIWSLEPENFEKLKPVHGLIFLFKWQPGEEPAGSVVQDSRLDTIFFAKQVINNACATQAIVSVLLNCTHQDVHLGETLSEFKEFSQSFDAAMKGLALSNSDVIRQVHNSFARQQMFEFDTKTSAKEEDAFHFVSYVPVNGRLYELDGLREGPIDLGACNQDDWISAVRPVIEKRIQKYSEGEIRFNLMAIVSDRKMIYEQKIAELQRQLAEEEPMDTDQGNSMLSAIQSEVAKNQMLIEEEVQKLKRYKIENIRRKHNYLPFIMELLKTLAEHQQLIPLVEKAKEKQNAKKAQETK
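system = Proteasome-associated human UCH37 deubiquitinase | amount = 0.15 nM proteasome as dispensed | medium = pH 7.4 Tris-HCl (50 mM) with ovalbumin, ATP-MgCl2, DTT | incubation = 30 min preincubation with enzyme, 25 min cleavage at room temperature | detection = AMC fluorescence 355/460 nm | read-out basis = percent inhibition | controls = no-proteasome and no-compound wells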
Ecoli rRNA inh OD600 = second read-out of Ecoli rRNA inh, no call of its own (marks repeat the call); OD600 change, %; measured here: OD600 growth;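 optical density of the mix in the first replicate; 0 = DMSO median and -100 = no signal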
Ecoli rRNA inh RFP = also measured in Ecoli rRNA inh; calls as there; RFP signal change, %; measured here: RFP humanized mutant strains;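 first replicate; 0 = DMSO median and -100 = no signal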
An asterisk follows results filed as active; i = inactive; . = no result given. The list is partial; the hit share may differ from the screen's.

SMILES	T cruzi inh	A1 inh	Ecoli rRNA inh	Ecoli rRNA inh OD600	Ecoli rRNA inh RFP	E coli growth	FGF22 binding	MLL AF4-AF9 inh	Beta cell apopt	UCH37 inh
Cc1csc(=O)n1CC(=O)OC(C)C(=O)Nc1cccc(Cl)c1 (stereo not given)	-2.1	0.1	3.2	1.0	1.1	0.667	i	-1.0	-4.7	4.5
CCCCOc1ccc(-c2nnn(CC(=O)NCc3ccco3)n2)cc1	-61.7	0.9	.	.	.	0.663	.	.	.	-0.4
CSCC[C@H](NC(=O)OC(C)(C)C)c1nnc(SCC(N)=O)o1	-2.3	0.2	.	.	.	.	.	.	-1.6	6.7
O=C(CSc1nnnn1C1CCCC1)N1CCCc2ccccc21	-2.3	-0.1	.	.	.	0.647	.	.	.	-0.3
CCOc1cc(C(N)=O)cc(Br)c1OC	-3.8	-0.3	.	.	.	0.682	.	.	-20.1	4.1
CN(C)CCN(Cc1cc2cc3c(cc2[nH]c1=O)OCO3)C(=S)NCC1CCCO1 (stereo not given)	-6.3	0.6	25.2	19.8	3.2	0.668	i	-0.8	-4.9	-166.0
Cc1cc(NNC(=O)c2ccccc2)nc(NNC(=O)c2ccccc2)n1	-8.3	0.8	-0.5	0.5	-2.0	0.675	i	-5.9	-1.4	0.8
Cc1ccc(S(=O)(=O)N2CCN(c3ccc([N+](=O)[O-])c4cccnc34)CC2)cc1	9.8	-0.5	.	.	.	0.695	.	.	-2.9	4.4
CCCN1C2CCCC1CC(NC(=O)Nc1cccc(C(C)=O)c1)C2 (stereo not given)	7.3	-0.1	.	.	.	0.669	.	.	4.8	-0.9
C[C@H](NC(=O)c1nc[nH]c1C(=O)NCC(=O)OC(C)(C)C)C(=O)OC(C)(C)C	7.2	0.9	4.1	-2.6	7.4	.	i	-1.8	-2.2	-1.8
COCCNC(=O)Cc1ccc(Br)cc1	-2.8	-1.5	.	.	.	0.678	.	.	.	1.1
COCCn1c(=NC(=O)c2ccc(S(=O)(=O)N3CCc4ccccc4C3)cc2)sc2cc(S(N)(=O)=O)ccc21	19.4	0.2	10.9	7.8	9.8	0.71	i	-9.2	-6.2	-371.0
CCN(CC)c1ccc(C2Nc3cccc4cccc(c34)N2)c(O)c1	.	-0.3	.	.	.	0.662	i	1.9	11.3	-3.0
CCOC(=O)C1(Cc2ccc(OC)cc2)CCN(C(=O)CC2CCC(=O)N2)CC1 (stereo not given)	5.9	0.0	11.1	10.2	2.8	0.669	i	-0.3	-3.2	-1.1
O=c1[nH]n(-c2ccc([N+](=O)[O-])cc2)c(=O)c2ccccc12	1.4	0.9	2.8	14.6	25.6	0.664	i	1.3	-2.5	6.6
Cc1nc(N2CCN(c3ccccn3)CC2)c2c(C)c(C(=O)Nc3ccc(Cl)cc3)sc2n1	27.1	0.7	-1.3	-1.0	2.2	0.745	i	-2.2	.	-28.1
C/C(=N\NC(=O)c1nnn(-c2nonc2N)c1CN(C)c1ccccc1)c1cccs1	9.4	0.1	-15.3	-8.9	0.7	.	i	-3.0	-5.7	.
CCN(c1ccccc1)c1nc2nonc2nc1NCCO	-3.3	-0.4	17.6	1.0	0.8	0.667	i	0.9	-1.1	12.6
CCn1cc(-c2n[nH]c(=S)n2-c2ccc(C)cc2Br)c(=O)c2ccc(C)nc21	.	-1.0	.	.	.	0.664	i	-4.2	3.3	6.8
CCCCSCCCNC(=O)c1ccc(CS(=O)(=O)c2ccc(OC)cc2)o1	0.6	-0.5	-8.5	-19.2	3.3	0.647	i	1.6	-0.8	5.4
Cc1cc2oc(=O)cc(CN3CCOCC3)c2cc1O	-10.1	0.9	13.1	12.8	4.8	0.685	i	4.0	-4.7	6.3
COc1ccc(Cl)cc1NC(=O)CN(C)C(=O)c1cccc(S(=O)(=O)N2CCN(C)CC2)c1	.	2.0	0.5	5.1	-0.5	0.717	i	4.6	0.1	1.5
CC(=O)Nc1ccc(S(=O)(=O)N2CCC(C(=O)NC3CCCC3)CC2)cc1	4.5	0.1	14.4	12.0	1.5	0.729	i	1.4	2.4	2.7
CNC(=O)c1ccc(NC(=O)CN2c3cccc4cccc(c34)S2(=O)=O)cc1	-7.6	-0.1	-13.7	-5.6	5.5	0.642	i	-1.2	-11.6	-49.1
Cc1cccc(-c2cc(C(=O)Nc3c(C)n(C)n(-c4ccccc4)c3=O)c3ccccc3n2)c1	6.4	0.1	15.5	7.9	7.1	0.726	i	2.7	.	5.8

Carrying on:
SMILES	T cruzi inh	A1 inh	Ecoli rRNA inh	Ecoli rRNA inh OD600	Ecoli rRNA inh RFP	E coli growth	FGF22 binding	MLL AF4-AF9 inh	Beta cell apopt	UCH37 inh
O=C(CSc1n[nH]c(-c2ccccc2Cl)n1)NCc1cccc(C(=O)O)c1	-31.1	0.7	15.3	7.1	2.5	0.644	i	-14.8	-8.5	1.6
CCO[C@@H]1OC(C(=O)N2CCN(Cc3ccc4c(c3)OCO4)CC2)=C[C@H](c2csc3ccccc23)[C@H]1CCCO	37.4	0.2	.	.	.	.	i	5.2	-0.8	2.2
COc1cccc(C(O)c2cnc(C(C)C)n2C)c1 (stereo not given)	-8.7	-0.4	0.5	1.5	-3.5	0.642	i	.	0.2	1.4
CN(C)c1ccc(NC(=O)COC(=O)Cn2nnc3ccccc32)cc1	-16.2	-0.4	.	.	.	0.705	.	.	1.0	-2.0
CCc1ccc(OCC(=O)OCC(=O)c2c(N)n(C)c(=O)n(C)c2=O)cc1	-7.3	-1.1	7.2	2.6	1.0	0.725	i	-1.0	.	4.8
CC1(C(=O)Nc2nccs2)Cc2ccccc2C(=O)O1 (stereo not given)	-0.7	0.7	.	.	.	0.664	.	.	-0.3	3.5
CCOC(=O)N1CCN(c2nc(-c3cccs3)cc(C(F)(F)F)n2)CC1	-11.6	0.2	.	.	.	0.72	.	.	10.0	-6.3
Cc1ccc(NS(=O)(=O)c2cccc(C(=O)NNC(=O)NC3CCCCC3)c2)c(C)c1	-3.0	0.2	.	.	.	0.677	i	0.9	-0.9	2.1
CCOc1ccc(/C=C2\CCC(C3CCCC3)C2=O)cc1 (stereo not given)	4.1	-0.9	9.0	5.6	0.5	.	i	0.7	-1.9	.
COc1ccc(N2C(=O)C(Cl)=C(N3CCN(Cc4ccccc4)CC3)C2=O)cc1	-11.6	.	-8.9	3.8	3.0	0.743	i	10.4	.	-0.6
CCCCOC(=O)Nc1ccc(N(C)C)cc1	34.3	-1.4	-5.2	-13.0	-2.7	0.689	i	9.0	7.5	4.4
O=C(Nc1cccc(C(=O)N2CCOCC2)c1)c1ccccc1Br	-10.3	1.1	3.7	4.5	-0.2	0.664	i	-0.2	.	-3.5
CCOC(=O)c1ccc(N=Nc2c(C)[nH]n(-c3ccccc3)c2=O)cc1	-9.1	0.0	3.8	5.7	-0.7	0.686	i	-3.3	-15.6	9.4
CCOC(=O)/C=C1\SCC(=O)N1CCOc1cccc(Br)c1	1.6	0.0	.	.	.	0.703	.	.	-2.5	1.1
Cn1cc(C(=O)NC2CCCCCCC2)c(=O)c2cc(S(=O)(=O)N3CCCC3)ccc21	15.0	0.2	.	.	.	0.662	.	.	-0.2	5.0
CCCNC(=O)c1ccc(-c2nn(C)c(=O)c3ccccc23)cc1	3.0	-0.5	-4.1	-4.5	1.1	0.654	i	3.1	-0.5	1.6
CC[C@]1(C(=O)OC)[C@H]2C(=O)N(Cc3ccccc3)C(=O)[C@H]2[C@H]2CN=C(SCc3ccc(C(=O)OC)cc3)N21	.	.	-25.6*	-15.7*	3.2*	0.719	i	2.3	.	-1.9
COc1ccc(C(=O)Cn2ccsc2=NC(C)=O)cc1	-4.0	0.3	.	.	.	0.696	.	.	1.2	1.0
Brc1cccc(OCCN2CCCCC2)c1	9.1	0.4	.	.	.	0.664	.	.	-2.4	3.2
COc1ccc(NC(=O)CN(C)C(=O)c2sc3cc(Cl)ccc3c2Cl)cc1	-9.6	-0.4	-0.9	-3.0	-3.4	0.687	i	-1.6	.	4.9
CCc1ccccc1N1C(=O)CC(Sc2nccc(C)n2)C1=O (stereo not given)	5.9	1.7	1.5	0.7	0.1	0.683	i	-1.6	-3.9	0.6
CCOc1cc(/C=N\NC(=O)c2ccc(C)nc2)ccc1OC(=O)c1ccc(F)cc1	1.3	-0.2	0.4	10.5	-1.7	.	i	1.9	-2.6	.
CCC(=O)NNC(=O)CCC(=O)Nc1cccc(Cl)c1C	-15.6	0.0	16.5	9.8	1.3	0.674	i	-1.4	.	4.7
Cc1ccc(C2=NOC(C)(c3nnc(-c4cccc(Cl)c4)o3)C2)cc1 (stereo not given)	-15.7	-0.3	2.2	-5.3	-10.0	0.703	i	-0.6	0.2	4.6
CCN(CC(=O)Nc1c(F)cccc1F)C(=O)C1CCN(C(=O)c2ccc(Cl)cc2)CC1	-1.0	0.1	6.4	4.8	-0.6	0.728	.	-1.3	-4.0	-1.4

Continued.
SMILES	T cruzi inh	A1 inh	Ecoli rRNA inh	Ecoli rRNA inh OD600	Ecoli rRNA inh RFP	E coli growth	FGF22 binding	MLL AF4-AF9 inh	Beta cell apopt	UCH37 inh
CC1=C(C(=O)Nc2cc(C(=O)NCCC(C)C)ccc2C)SCCO1	-14.3	-0.3	8.9	1.6	0.0	0.626	i	0.9	-7.2	0.5
COc1ccccc1-c1noc(CCC(=O)Nc2cccc(C(F)(F)F)c2)n1	-2.9	0.1	.	.	.	0.697	.	.	-4.5	1.5
COc1ccc(OCCC(=O)NCCN2CCOCC2)cc1	-2.9	0.0	12.4	5.8	4.2	0.663	i	-3.2	1.6	3.9
O=C(NCc1cccnc1)c1cc(-c2ccco2)on1	-11.8	0.4	15.2	6.5	-2.3	0.705	i	5.1	100.8*	0.1
Cc1ccc(C(=O)N(CN2CCCC2=O)c2ccc(F)cc2)cc1C	-4.6	0.1	.	.	.	0.674	.	.	-4.0	4.6
CC(C)(C)c1cc(NC(=O)CCl)n(-c2ccccc2)n1	35.9	-0.1	12.8	4.5	-0.7	0.699	i	-0.6	-15.2	3.4
CC(=O)c1ccc(N(C(=O)Cn2nnc3ccccc32)C(C(=O)NCc2ccccc2)c2ccccn2)cc1 (stereo not given)	7.8	1.5	4.9	0.1	-0.7	0.677	i	0.0	-1.5	0.6
CCC(=O)N1CCc2cc(Br)cc(S(=O)(=O)CCC(=O)NCc3ccco3)c21	-2.1	0.0	.	.	.	0.718	.	.	4.0	0.4
CC1CCCCN1C(=O)CN1CCN(S(=O)(=O)c2ccc(Br)cc2Cl)CC1 (stereo not given)	.	0.5	-6.3	-37.5	-1.1	0.661	i	1.6	1.8	2.1
O=C(CNc1ccc2ccccc2c1)NNC1=NCCC1	0.5	-0.2	6.4	5.9	2.3	0.683	i	-0.6	1.2	-18.0

Random excerpt: 2 entries already listed, in no set order.
SMILES	T cruzi inh	A1 inh	Ecoli rRNA inh	Ecoli rRNA inh OD600	Ecoli rRNA inh RFP	E coli growth	FGF22 binding	MLL AF4-AF9 inh	Beta cell apopt	UCH37 inh
O=C(CSc1nnnn1C1CCCC1)N1CCCc2ccccc21	-2.3	-0.1	.	.	.	0.647	.	.	.	-0.3
CCCNC(=O)c1ccc(-c2nn(C)c(=O)c3ccccc23)cc1	3.0	-0.5	-4.1	-4.5	1.1	0.654	i	3.1	-0.5	1.6

Screens (PubChem)
